CBX7 inh: CBX7 chromodomain binding inhibitors, primary screen, biochemical, AlphaScreen. Chromobox protein homolog 7 (Homo sapiens), O95931. normalised signal (fraction of DMSO) (test concentration not listed). AlphaScreen His6-CBX7 / biotin-H3K27me3 peptide binding; stronger effect = lower value. actives 1.1% (n = 66,000). AID 1224903, 2016; in the data active = normalised signal below about 0.5;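 note: 100 nL library stock added to about 20 µL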
Target sequence (O95931 whole entry, looked up): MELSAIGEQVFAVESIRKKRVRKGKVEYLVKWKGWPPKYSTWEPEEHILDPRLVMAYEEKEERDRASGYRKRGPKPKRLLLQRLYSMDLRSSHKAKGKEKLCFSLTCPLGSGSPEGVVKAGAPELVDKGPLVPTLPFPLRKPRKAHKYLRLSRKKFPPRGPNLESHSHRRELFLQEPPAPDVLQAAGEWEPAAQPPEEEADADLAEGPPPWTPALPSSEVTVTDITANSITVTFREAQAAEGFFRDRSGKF
CBX7 inh z-score: further read-out of CBX7 inh, marked with its call; z-score; measured here: z-score of CBX7 signal; some inactives read as strong as hits; reference of the scale not given here;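 same signal on another scale; lower means less binding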
The depositor's hits bear a star; & = joins results of further samples.

Structure | CBX7 inh | CBX7 inh z-score
COc1ccc(OC)c(NC(=O)Cn2cc(S(=O)(=O)c3ccccc3)c(=O)c3ccccc32)c1 | 1.11 | 3.69
CN(CCNC(=O)c1cnn2c(C(F)(F)F)cc(-c3ccccc3)nc12)Cc1ccccc1 | 0.891 | -2.69
CCc1ccc(NC(=O)Nc2csc3c2CCCC3)cc1 | 0.962 | -0.413
CCc1ccc(NC(=O)C2CCCN(S(=O)(=O)c3c(C)noc3C)C2)cc1 (stereo not given) | 1.01 | 0.0977
N#Cc1nc(COc2ccccc2F)oc1NCc1ccc(F)cc1 | 0.88 | -0.751
Cc1cc(OCc2nc(-c3nonc3N)no2)cc(C)c1Cl | 1.03 | 0.74
Cc1c(C)n(C)c2ccc(C(=O)NCc3ccccn3)cc12 | 0.891 | -1.94
COc1ccc(-c2cc(C(=O)N3CCN(c4ccc(F)cc4)CC3)no2)cc1 | 0.997 | -0.0573
COc1ccc(N2CCN(C(=O)c3ccc(CNc4c(N5CCOCC5)c(=O)c4=O)cc3)CC2)cc1 | 1.09 | 1.34
COCCN1Cc2cccc(C(=O)NC3CCCCCC3)c2C1=O | 0.997 | -0.00338
CCN(CC)CCCNC(=O)CN1C(=O)COc2ccc(C)cc21 | 1.11 | 1.78
COc1cc(-c2nnc(SCC(=O)c3ccccc3)o2)cc(OC)c1OC | 1.04 | 0.824
Cc1onc(-c2ccccc2Cl)c1C(=O)N1CCc2ccccc21 | 1.06 | 1.38
Cc1cc(NS(=O)(=O)c2ccc(NC(=O)CCc3ccccc3)cc2)no1 | 0.993 | -0.175
O=C(Cc1ccccc1)Nc1ncc(Cc2ccc(Cl)cc2)s1 | 1.02 | 0.806
COc1ccccc1Nc1cc(C(=O)NCCc2ccc(C)cc2)c2ccccc2n1 | 1.07 | 0.0685
O=C(Nc1ccc2oc(-c3cc(F)c(F)cc3Cl)nc2c1)c1cc2ccccc2o1 | 1.09 | 1.58
CC1(C)CC(=O)c2cc(C(=O)NCCc3ccccc3)c(=O)n(-c3ccccc3)c2C1 | 0.927 | -0.785
CCOc1ccc2nc(N3CCCC(C(=O)N4CCN(c5cccc(Cl)c5)CC4)C3)sc2c1 (stereo not given) | 0.711 | -5.42
OCC1OC(n2cnc3c(NCc4ccccc4)ncnc32)C(O)C1O (stereo not given) | 0.946 | -0.863
COc1ccc(-c2onc(C)c2-c2ccc(C(=O)OC(C)C)o2)c(O)c1 | 0.953 | -0.0808
CCOC(=O)c1[nH]c2c(c1C)C(=O)CC(c1ccc(OCC)c(OC)c1)C2 (stereo not given) | 1.05 | 2.17
CCN(CC)Cc1c(C)[nH]c2ccccc2c1=O | 1.04 | 1.98
CCc1ccc(N2CC(c3nc4ccccc4n3C)CC2=O)cc1 (stereo not given) | 1.02 | 0.619
CCOc1ccc(-c2cc(C(=O)O)c3ccccc3n2)cc1OCC | 1.01 | 0.152
Nc1nonc1-c1noc(COc2ccc(F)cc2)n1 | 0.968 | -0.857
c1csc(-c2noc(COc3ccc4c(c3)CCC4)n2)c1 | 1.2 | 9.67
CCOC(=O)c1c(NC(=O)COc2cccc(C(F)(F)F)c2)sc2c1CCCC2 | 1.03 | 1.16
CCOC(=O)c1cnc2c(OC)cccc2c1N1CCN(c2ccccn2)CC1 | 0.772 | -0.257
COc1cccc(CNCc2cccnc2)c1OCc1ccccc1 | 1.01 | 0.0993
COc1ccc(-c2cc(C(=O)N3CCCCC3)no2)cc1OC | 1.25 | 1.96
COC(=O)c1c(NS(=O)(=O)c2ccc(C)cc2)sc(C)c1C | 0.708 | -4.08
Nc1n[nH]c(-c2ccc(F)cc2)n1 | 0.872 | -1.95
O=C(NCc1ccccc1Cl)c1ccc2c(c1)N(Cc1ccc(F)cc1)C(=O)CS2 | 0.907 | -0.927
COc1cccc(C(=O)N2CC(=O)Nc3ccc(C)cc3C2c2ccc(F)cc2)c1OC (stereo not given) | 0.945 | -0.763
CC(C)(C)c1ccc2c(c1)N(CC(=O)NCCCN1CCN(Cc3ccccc3)CC1)C(=O)CO2 | 1.05 | 0.853
Cc1ccccc1NC(=O)C1CCCN(S(=O)(=O)c2cccs2)C1 (stereo not given) | 0.995 | -0.00714
COc1ccc(Cl)cc1NS(=O)(=O)c1ccc2c(c1)n(C)c(=O)c(=O)n2C | 0.871 | -1.97
Cc1sc2ncn(CC(=O)NCC(=O)N(C)C3CCCCC3)c(=O)c2c1C | 1.02 | 0.66
COc1ccccc1CNc1nc(C)nc2sc3c(c12)CCCC3 | 0.84 | -4.32
COc1ccc(OC)c(CNC(=O)CCc2nc(-c3cccs3)no2)c1 | 1 | 0.0752
CCOC(=O)c1ccc(Nc2nc(-c3cccnc3)nc3ccccc23)cc1 | 1.03 | 0.838
COc1ccc2nc(C)c3c(c2c1)SC(C)C3 (stereo not given) | 0.923 | -1.89
Cc1cccc(Cl)c1NC(=O)C1CC(=O)N(c2ccc(Br)cc2)C1 (stereo not given) | 0.924 | -1.2
Cc1ccc(S(=O)(=O)C2(C(=O)N3CCN(Cc4ccccc4)CC3)CC2)cc1 | 1.01 | 0.248

Of the compounds above, these contain a Cl atom.
Structure | CBX7 inh | CBX7 inh z-score
Cc1cc(OCc2nc(-c3nonc3N)no2)cc(C)c1Cl | 1.03 | 0.74
Cc1onc(-c2ccccc2Cl)c1C(=O)N1CCc2ccccc21 | 1.06 | 1.38
O=C(Cc1ccccc1)Nc1ncc(Cc2ccc(Cl)cc2)s1 | 1.02 | 0.806
O=C(Nc1ccc2oc(-c3cc(F)c(F)cc3Cl)nc2c1)c1cc2ccccc2o1 | 1.09 | 1.58
CCOc1ccc2nc(N3CCCC(C(=O)N4CCN(c5cccc(Cl)c5)CC4)C3)sc2c1 (stereo not given) | 0.711 | -5.42
O=C(NCc1ccccc1Cl)c1ccc2c(c1)N(Cc1ccc(F)cc1)C(=O)CS2 | 0.907 | -0.927
COc1ccc(Cl)cc1NS(=O)(=O)c1ccc2c(c1)n(C)c(=O)c(=O)n2C | 0.871 | -1.97
Cc1cccc(Cl)c1NC(=O)C1CC(=O)N(c2ccc(Br)cc2)C1 (stereo not given) | 0.924 | -1.2

Additional structures:
Structure | CBX7 inh | CBX7 inh z-score
O=C1CC(c2nc3ccccc3n2Cc2ccc(Cl)cc2)CN1Cc1ccccc1 (stereo not given) | 0.818 | -1.3
COc1ccc(N2CCN(C(c3cccs3)C(C)NC(=O)c3ccccc3F)CC2)cc1 (stereo not given) | 0.872 | -3.12
Brc1ccc(-c2nc(Cc3ccccc3)no2)cc1 | 1.3 | 2.05
Cc1cccc(CSc2nc3ccncc3n2CC(=O)Nc2ccc(C(C)C)cc2)c1 | 0.968 | -0.461
Fc1ccc(-n2cc(-c3ccccc3)c3c(NCc4ccc5c(c4)OCO5)ncnc32)cc1 | 0.852 | -4.21
COc1cc(NC(=O)CN2C(=O)c3ccccc3Sc3ccc(C(=O)N4CCCC4)cc32)cc(OC)c1 | 0.975 | -0.699
CCCn1c(CNC(=O)c2cccs2)nc2ccccc21 | 1.02 | 0.884
COc1ccc2c(c1)Cc1sc(NC(=O)c3cccc(C)c3)nc1-2 | 1.22 | 3.17
CCOC(=O)c1oc2ccccc2c1NC(=O)c1ccc(F)cc1 | 1.06 | 2.31
Cc1nc(N2CCCCC2)c(C#N)c2c1COC(C)(C)C2 | 1.05&1.02 | 0.75&0.476
CCOC(=O)c1cc(-c2ccccc2)n(CCC(=O)Nc2ccc(F)cc2F)c1C | 0.891 | -3.22
O=C(Nc1ccc(F)cc1)N1CCN(c2ccccn2)CC1 | 1.03 | 0.588
CCS(=O)(=O)N1CCC(C(=O)NCCc2ccc(C)cc2)CC1 | 1.04 | 0.637
CCCNC(=O)CN1C(=O)COc2ccc(S(=O)(=O)N3CC(C)CC(C)C3)cc21 (stereo not given) | 0.999 | -0.0166
CCOc1ccc(N2CC(=O)Nc3ccccc3S2(=O)=O)cc1 | 0.986 | -0.109
CCOC(=O)c1nc(Nc2ccc(C)c(C)c2)c2ccccc2n1 | 1.22 | 2.27
Cc1cccc(NC(=O)CSc2nnc(Cc3cc(=O)[nH]c(=O)[nH]3)n2-c2ccc(Cl)cc2)c1C | 0.977 | -0.357
O=C(Nc1nnc(COc2ccc(Br)cc2)s1)C1CCCCC1 | 1.14 | 0.6
O=C(NCCN1CCCC1)C1(S(=O)(=O)c2ccc(Cl)cc2)CC1 | 1.04 | 1.16
CCCN(CCC)CCNC(=O)CN1C(=O)COc2ccc(S(=O)(=O)N3CCC(C)CC3)cc21 | 1.03 | 0.919
CCC(=O)Nc1nonc1-c1nc2ccccc2n1N(C(=O)CC)C(=O)CC | 0.824 | -1.73
CC(C)c1ccc(C2Nc3ccccc3NC3=C2C(=O)CC(C)(C)C3)cc1 (stereo not given) | 0.947 | -0.358
CCN(CC)C(=O)Nc1ccc2snnc2c1 | 1.05 | 0.881
COc1ccc(C2(CNC(=O)CCOc3ccccc3)CCOCC2)cc1 | 0.982 | -0.688
Cc1cc2nc(Cc3cccc(F)c3)c(=O)[nH]c2cc1C | 0.996 | -0.0842
CCOc1ccc(-c2nc(C#N)c(NCCCOC)o2)cc1 | 0.856 | -1.58
O=C(NC1CCCCC1)C(c1ccccc1)N(Cc1ccccc1)Cc1ccccc1 (stereo not given) | 1 | 0.0774
COc1ccc(Cl)cc1NC(=O)C1(S(=O)(=O)c2ccc(C)cc2)CC1 | 1.05 | 1.85
Cc1cccc(-c2nc(Nc3ccccc3)c3ccccc3n2)c1 | 1.31 | 6.55
COc1cc(Cl)c(C)cc1NC(=O)c1cn(C)c(=O)c2cc(OC)c(OC)cc12 | 1.09 | 1.26
CC(NC(=O)c1ccc2c(c1)N(Cc1ccccc1F)C(=O)CS2)c1ccccc1 (stereo not given) | 1.04 | 1.97
COc1ccc(CCNC(=O)CCN2N=C(c3ccc(C)cc3)CCC2=O)cc1OC | 1.04 | 0.589
COc1ccccc1CN1C(=O)CN(C2CCCCCC2)C(=O)C1c1ccc(C)cc1 (stereo not given) | 0.99 | -0.0986
Cc1ccc(-c2nc(C#N)c(NCc3ccc(Cl)cc3)o2)cc1 | 0.62 | -13.2
CCc1nnc(NC(=O)c2ccc(S(=O)(=O)N3CCCC3)cc2)o1 | 0.454* | -12.3*
CCN1C(=O)CSc2ccc(C(=O)NCCCOC)cc21 | 0.977 | -0.596
COc1ccc(Nc2ncc(C(=O)N(C)C3CCCCC3)c3ccccc23)cc1 | 1.01 | 0.134
COc1ccc(C2(C(=O)NCc3ccccc3Cl)CCCC2)cc1OC | 1.04 | 1.08
CCc1ccc2oc(-c3ccc(C)c(NC(=O)COc4ccc(OC)cc4)c3)nc2c1 | 0.979 | -0.052
COc1ccc(CCNS(=O)(=O)c2ccc3c(c2)CCN3C(=O)C2CCC2)cc1OC | 0.948 | -1.75
COc1cc(OC)c(N(C)C(=O)Cc2c(C(=O)O)n(C)c3ccccc23)cc1Cl | 1.11 | 2.05
CC(=O)N1CCc2cc(S(=O)(=O)Nc3ccc(Br)cc3)ccc21 | 1.25 | 2.57
Cc1ccc(S(=O)(=O)NC(C)C(c2cccs2)N2CCN(c3ccccc3F)CC2)cc1 (stereo not given) | 1.03 | 0.737
COc1ccc(CNC(=O)c2cnn(-c3ccccc3)c2-n2cccc2)cc1 | 1.02 | 0.893
Cc1cccc(-c2nc(N3CCCCCC3)c3ccccc3n2)c1 | 1.16 | 4.35
CCCn1nnnc1NCc1ccccc1OCc1ccccc1F | 1.04 | 1.08
CC(C)CCNC(=O)c1cc2c(s1)CSC2 | 1.07 | 0.747
Cc1cc(NC(=O)CSc2nc(Nc3ccc4c(c3)OCO4)c3ccccc3n2)n[nH]1 | 1.02 | 0.0668
O=C1Nc2cc(C(=O)N3CCN(Cc4ccccc4)CC3)ccc2Nc2ccccc21 | 0.874 | -1.01
Cc1ccc(-c2nc(CS(=O)(=O)CC(=O)Nc3ccccc3Cl)c(C)o2)cc1 | 0.533 | -0.97
O=C(c1ccc2c(c1)N(Cc1ccccc1Cl)C(=O)c1ccccc1S2)N1CCOCC1 | 0.93 | -1.82
COc1cc(OC)cc(N2C(=O)CC(N3CCC(O)CC3)C2=O)c1 (stereo not given) | 0.794 | -2.02
Oc1cccc(-c2nc3cnccn3c2Nc2ccc(Cl)cc2)c1 | 1.08 | 3.44
Nc1c(-c2nc(-c3ccc(Br)cc3)cs2)c2ccccn2c1C(=O)c1ccccc1 | 1.03 | 0.456
CC1CCC(NC(=O)c2ccc(CNc3c(N4CCC(C)CC4)c(=O)c3=O)cc2)CC1 (stereo not given) | 1.03 | 1.2
COC(=O)CC1Oc2ccccc2N(Cc2ccccc2)C1=O (stereo not given) | 0.958 | -1
O=C(CSc1ncn[nH]1)Nc1nnc(-c2ccccc2)s1 | 1&1.68 | 0.0563&4.87
CCc1ccc(-c2nc(CN3CCC(C(=O)NC4CCCCCC4)CC3)c(C)o2)cc1 | 0.881 | -1.81
Cc1ccccc1-n1c(CCC(=O)O)ccc1-c1ccc(F)cc1 | 0.948 | -1.59
Cc1cc(C(F)(F)F)nc(Nc2nc3ccccc3o2)n1 | 1.05 | 0.541

Next part
Structure | CBX7 inh | CBX7 inh z-score
CCOCCCNC(=O)c1ccc2c(c1)N(Cc1ccccc1)C(=O)c1ccccc1S2 | 1 | 0.0873
Cc1ccnc(N2C(=O)c3ccccc3C2Nc2cc(C)ccc2C)c1 (stereo not given) | 1.02 | 0.616
CCN(CC)S(=O)(=O)c1ccc2oc(C(=O)NCCc3ccc(OC)c(OC)c3)c(C)c2c1 | 1.05 | 0.238
COc1cc2c(C(=O)N(C)c3cc(C)ccc3OC)cn(CC(C)C)c(=O)c2cc1OC | 1.04 | 1.46
CCC(C)NC(=O)CC1Oc2ccccc2NC1=O (stereo not given) | 0.964 | -0.687
NC(=O)C1CCN(C2CC(=O)N(c3cccc(Br)c3)C2=O)CC1 (stereo not given) | 1.14 | 1.89
Cc1ccc(C)c2[nH]c(=O)c(CCNS(=O)(=O)c3ccc(F)cc3)cc12 | 1.22 | 1.65
CC(C)(CNC(c1ccccc1)c1ccccc1)NS(=O)(=O)c1ccccc1 | 1.05 | 1.69
CCc1nc2ccc(C(=O)NCc3ccccc3)cc2nc1CC | 0.792 | -2.75
Cc1cccc(C2Nc3ccccc3C(=O)N2c2ccccc2)n1 (stereo not given) | 0.968 | -0.897

Screening data: PubChem, several laboratories

The list is partial, so the mix of outcomes need not match the whole.
